# AF4-AF9 inh = inhibitors of AF4 peptide binding to AF9, primary screen, biochemical, AlphaScreen, biotin-AF4 peptide, FLAG-AF9, single point. inhibition, % at 10 µM. Protein AF-9 (Homo sapiens), P42568. 350,000 tested, 0.47% active;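 active = every replicate reaching a set inhibition limit, whatever the replicate mean, cut at about 25% in these data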;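 also: 0% = plate neutral control median and 100% = total signal loss; the record names both 10 and 1 µM as test concentration; the first replicate is given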
# Target sequence (P42568 whole entry, looked up): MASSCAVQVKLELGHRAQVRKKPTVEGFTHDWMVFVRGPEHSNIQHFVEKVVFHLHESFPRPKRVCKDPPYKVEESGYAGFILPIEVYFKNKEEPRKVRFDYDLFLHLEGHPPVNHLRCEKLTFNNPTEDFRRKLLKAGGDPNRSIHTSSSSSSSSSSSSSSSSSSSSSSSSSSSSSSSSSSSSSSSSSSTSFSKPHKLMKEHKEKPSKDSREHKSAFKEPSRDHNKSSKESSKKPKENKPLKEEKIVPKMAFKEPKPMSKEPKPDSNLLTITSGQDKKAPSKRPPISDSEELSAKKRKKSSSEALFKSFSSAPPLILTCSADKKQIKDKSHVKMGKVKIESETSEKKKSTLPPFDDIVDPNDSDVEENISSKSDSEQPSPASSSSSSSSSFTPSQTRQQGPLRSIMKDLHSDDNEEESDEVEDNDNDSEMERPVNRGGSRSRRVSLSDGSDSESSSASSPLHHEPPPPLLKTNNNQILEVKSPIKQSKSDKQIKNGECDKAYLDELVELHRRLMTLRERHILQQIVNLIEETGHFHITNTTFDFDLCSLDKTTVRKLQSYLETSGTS
# FGF22 binding = binders of human FGF22 protein, primary screen, FGF22 synaptogenesis inhibitor project, biophysical, thermal shift, single point; calls only at 9.99 µM; recombinant FGF22 thermal shift, SYPRO orange fluorescence; percent of sucrose octasulfate shift, DMSO zero; Fibroblast growth factor 22 (Homo sapiens), Q9HCT0; 340,000 tested, 1.5% active;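 active = melting point raised past a set limit in the mean and every replicate; three in four hits are not shown here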
# Target sequence (Q9HCT0 whole entry, looked up): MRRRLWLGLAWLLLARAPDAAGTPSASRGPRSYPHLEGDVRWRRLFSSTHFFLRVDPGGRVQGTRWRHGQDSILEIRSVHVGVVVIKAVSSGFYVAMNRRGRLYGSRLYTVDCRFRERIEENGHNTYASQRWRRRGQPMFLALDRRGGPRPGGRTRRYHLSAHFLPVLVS
# The depositor's hits bear a star; i = inactive; + = active, no number.
SMILES,AF4-AF9 inh,FGF22 binding
CNC[C@@H]1Oc2cc(C#Cc3ccncc3)ccc2S(=O)(=O)N([C@H](C)CO)C[C@H]1C,-0.7,i
C[C@@H]1CCCCO[C@H](CN(C)Cc2ccc(C(=O)O)cc2)[C@@H](C)CN([C@H](C)CO)C(=O)c2cc(NC(=O)Nc3cccc4ccccc34)ccc2O1,-1.1,i
O=C(C1CC1)N1C[C@@H]2[C@H](c3ccccc31)[C@H](CO)N2C(=O)Nc1cccc(F)c1,-8.9,i
COc1cccc(CN2[C@@H](CO)[C@@H](c3ccccc3)C23CN(C(=O)C2CC2)C3)c1,-13,i
COc1cccc(NC(=O)N(C)C[C@@H]2Oc3ncc(C#Cc4cccnc4)cc3C(=O)N([C@@H](C)CO)C[C@@H]2C)c1,-1.0,i
C[C@H](CO)N1C[C@H](C)[C@@H](CN(C)C(=O)NC2CCCCC2)Oc2ncc(-c3ccccc3F)cc2C1=O,-1.3,i
C[C@H](CO)N1C[C@H](C)[C@@H](CN(C)Cc2ccc3c(c2)OCO3)Oc2c(NC(=O)Nc3ccc4c(c3)OCO4)cccc2C1=O,4.6,i
CCCNC(=O)N[C@@H]1C=C[C@@H](CC(=O)NC2CCCCC2)O[C@@H]1CO,-1.8,i
CCCNC(=O)N1C[C@H](C)[C@H](OC)CN(C)C(=O)c2cc(NS(=O)(=O)CC(F)(F)F)ccc2OC[C@H]1C,-0.6,i
CNC[C@@H]1Oc2ccc(N(C)C)cc2C(=O)N([C@H](C)CO)C[C@@H]1C,-0.4,i
C[C@H](O)C#Cc1ccc([C@@H]2[C@@H](CO)N3CCCCN(S(=O)(=O)Cc4ccccc4)C[C@H]23)cc1,-6.0,i
CN1CCN(C(=O)[C@H]2[C@H](CO)[C@H]3Cn4c(ccc(C5=CCCC5)c4=O)[C@@H]2N3S(C)(=O)=O)CC1,-2.5,i
C[C@@H]1CN([C@@H](C)CO)S(=O)(=O)c2ccc(-c3cccc(C#N)c3)cc2O[C@@H]1CN(C)C(=O)c1ccccc1,0.3,i
COCC#Cc1cnc2c(c1)C(=O)N([C@@H](C)CO)C[C@H](C)[C@H](CN(C)C(=O)c1cnccn1)O2,-4.4,i
CCCNC(=O)N(C)C[C@H]1Oc2cc(C#CCN(C)C)ccc2S(=O)(=O)N([C@@H](C)CO)C[C@@H]1C,-0.1,i
CN(C)C(=O)c1ccc(-c2ccc([C@H]3[C@@H](C#N)N(S(C)(=O)=O)[C@H]3CO)cc2)cc1,5.1,i
C/C=C/c1cnc2c(c1)C(=O)N([C@@H](C)CO)C[C@@H](C)[C@@H](CN(C)C(=O)C1CCCCC1)O2,2.2,i
COc1ccccc1-c1cccc(-c2nc(C(=O)N3CCCCC3)cc3c2[C@@H](CCO)N([S@](=O)C(C)(C)C)C3)c1,-0.3,i
Cc1ccc(S(=O)(=O)Nc2ccc3c(c2)C(=O)N([C@@H](C)CO)C[C@H](C)[C@@H](CN(C)C(=O)Nc2c(C)noc2C)OCCCC[C@H](C)O3)cc1,-1.9,i
C[C@H](CO)N1C[C@H](C)[C@H](CN(C)Cc2ccccc2)Oc2ccc(NS(=O)(=O)c3ccc(Cl)cc3)cc2C1=O,2.9,i
OC[C@H]1CC[C@@H]2O[C@H](CCc3ccc(-c4ccccc4)cc3)[C@@H](n3cc(C4CC4)nn3)C[C@@H]2O1,-3.6,i
Cc1ccc(Cc2c(-c3cccc(Br)c3)nc3c4ccccc4ccn23)cc1,0.3,i
CN(C)CC#Cc1ccc([C@@H]2[C@@H](CO)N3C(=O)CN(C(=O)c4ccc(F)cc4)C[C@@H]23)cc1,1.0,i
COc1ccc(S(=O)(=O)N(C)C[C@@H]2Oc3ccc(NC(=O)Nc4c(C)noc4C)cc3CC(=O)N([C@H](C)CO)C[C@H]2C)cc1,-2.4,i
C[C@H]1CN([C@@H](C)CO)C(=O)c2cccc(NS(=O)(=O)c3ccc(F)cc3)c2O[C@H]1CN(C)Cc1ccc2c(c1)OCO2,0.3,i
C[C@H](CO)N1C[C@H](C)[C@H](CN(C)CC2CC2)OCc2cn(nn2)CCCC1=O,-3.2,i
C[C@H]1CN([C@@H](C)CO)C(=O)Cc2cc(NS(=O)(=O)c3cn(C)cn3)ccc2O[C@@H]1CN(C)Cc1ccc(Cl)c(Cl)c1,-1.6,i
CCNC(=O)C[C@H]1CC[C@@H]2[C@H](COC[C@H](O)CN2Cc2ccncc2)O1,-3.3,i
CO[C@@H]1CN(C)C(=O)c2cc(NS(=O)(=O)c3ccccc3)ccc2OC[C@H](C)N(C)C[C@H]1C,0.2,i
COc1ccc(NC(=O)Nc2ccc3c(c2)C(=O)N([C@H](C)CO)C[C@@H](C)[C@H](CN(C)Cc2ccc(C(F)(F)F)cc2)O3)cc1,3.5,i
CCCC(=O)OC[C@H]1CN([C@H](C)c2ccccc2)S(=O)(=O)c2c(F)cccc2O1,0.5,i
O=C(C[C@@H]1CC[C@@H](NC(=O)Nc2ccc(F)cc2)[C@@H](CO)O1)NCc1ccccn1,-0.8,i
CC(C)CC#Cc1cnc2c(c1)C(=O)N([C@@H](C)CO)C[C@H](C)[C@H](CN(C)Cc1ccc(C(=O)O)cc1)O2,-8.7,i
COC(=O)C[C@@H]1CC[C@@H]2[C@@H](COc3ccc(NC(=O)c4ccc(F)c(F)c4)cc3C(=O)N2C)O1,-1.6,+
COc1ccc(CN(C)C[C@@H]2Oc3ccc(NC(=O)CCCCCC(=O)Nc4ccccc4N)cc3CC(=O)N([C@H](C)CO)C[C@H]2C)cc1,0.8,i
C[C@@H]1CN([C@H](C)CO)C(=O)c2cccc(N(C)C)c2O[C@@H]1CN(C)C(=O)NC1CCCCC1,-2.9,i
COC(=O)[C@]12C[C@H](CC(=O)NCC3CCCCC3)C(=O)N(Cc3ccccc3)C1=C[C@H](C(C)C)O[C@@H]2C1CC1,-3.0,i
COC(=O)C[C@H]1CC[C@H]2[C@H](COc3ccc(NC(=O)c4ccc(C(F)(F)F)cc4)cc3C(=O)N2C)O1,-0.6,i
O=C(C[C@@H]1C=C[C@@H](NC(=O)NC2CCCC2)[C@H](CO)O1)NCc1ccc(F)cc1,-2.2,i
C[C@@H]1CN([C@H](C)CO)C(=O)Cc2cc(NS(=O)(=O)c3cn(C)cn3)ccc2O[C@H]1CN(C)C(=O)Nc1ccc2c(c1)OCO2,-31,i
C[C@H](CO)N1C[C@H](C)[C@H](CN(C)C(=O)Nc2ccc3c(c2)OCO3)Oc2ccc(NC(=O)CCCN(C)C)cc2C1=O,-0.2,i
C[C@@H]1CN([C@@H](C)CO)C(=O)c2cc(C#CCN(C)C)cnc2O[C@H]1CN(C)Cc1ccccn1,-0.7,i
CN(C)C(=O)C[C@H]1CC[C@@H]2[C@@H](COc3ccc(NC(=O)Nc4cccc(Cl)c4)cc3C(=O)N2C)O1,0.8,i
CC(C)NC(=O)Nc1ccc2c(c1)C(=O)N([C@@H](C)CO)C[C@H](C)[C@@H](CN(C)C)OCCCC[C@H](C)O2,-1.3,i
COCc1cn(CC[C@H]2CC[C@H](NC(=O)c3ccc(F)cc3)[C@@H](CO)O2)nn1,-1.5,i
COC(=O)N(C)C[C@H]1OCc2cn(nn2)CCCC(=O)N([C@H](C)CO)C[C@H]1C,-1.3,i
CO[C@@H]1CN(C)C(=O)c2cc(NC(=O)c3nc4ccccc4s3)ccc2OC[C@@H](C)NC[C@H]1C,2.2,i
C[C@@H]1CN([C@@H](C)CO)C(=O)Cc2cc(NS(=O)(=O)c3ccc(Cl)cc3)ccc2O[C@H]1CN(C)S(C)(=O)=O,-1.4,i
CCCC(=O)OC[C@H]1CN(C2CCCC2)S(=O)(=O)c2c(Oc3ccccc3)cccc2O1,0.4,i
O=C(C[C@H]1CC[C@@H]2[C@H](COC[C@H](O)CN2Cc2cc(F)cc(F)c2)O1)NC1CCCC1,1.5,i
C[C@@H]1CCCCO[C@@H](CN(C)Cc2ccc(C(F)(F)F)cc2)[C@H](C)CN([C@H](C)CO)C(=O)c2cc(NC(=O)c3ccccc3)ccc2O1,0.2,i
COc1ccc(CN(C)C[C@H]2Oc3ccc(NS(=O)(=O)c4cn(C)cn4)cc3C(=O)N([C@@H](C)CO)C[C@H]2C)cc1,-1.6,i
C[C@@H]1CN([C@@H](C)CO)C(=O)Cc2cc(NC(=O)Nc3ccc(F)cc3)ccc2O[C@H]1CN(C)S(=O)(=O)c1ccccc1,0.7,i
COc1ccc(NC(=O)N(C)C[C@@H]2OCCCC[C@@H](C)Oc3ccc(N(C)C)cc3C(=O)N([C@@H](C)CO)C[C@H]2C)cc1,-1.7,i
C[C@@H]1CN([C@H](C)CO)C(=O)Cc2cc(NC(=O)Cn3cnnn3)ccc2O[C@@H]1CN(C)C(=O)Nc1ccc2c(c1)OCO2,-0.6,i
CN(C)C(=O)[C@]1(Cc2ccccc2)N=C(c2ccc(OCCCO)cc2)O[C@@H]1c1ccccc1,4.8,i
C[C@@H]1CN([C@H](C)CO)C(=O)Cc2cc(NC(=O)Nc3ccc4c(c3)OCO4)ccc2O[C@H]1CN(C)Cc1ccc(C(=O)Nc2ccccc2N)cc1,0.5,i
CCNC(=O)[C@@H]1[C@@H](CO)[C@@H]2Cn3c(ccc(-c4cncnc4)c3=O)[C@@H]2N1C(=O)c1ccccc1F,0.6,i
CO[C@@H]1CC[C@H]2CCOc3ccc(C#N)cc3C(=O)N(C)C[C@@H](c3ccccc3)CC(=O)N(C)C[C@@H]1O2,0.0,i
CCCNC(=O)N(C)C[C@H]1Oc2ncc(-c3ccc(C(=O)N(C)C)cc3)cc2C(=O)N([C@@H](C)CO)C[C@H]1C,-6.9,i

# Shown with bars between the fields: entries from further up.
structure | AF4-AF9 inh | FGF22 binding
CCNC(=O)[C@@H]1[C@@H](CO)[C@@H]2Cn3c(ccc(-c4cncnc4)c3=O)[C@@H]2N1C(=O)c1ccccc1F | 0.6 | i
O=C(C[C@H]1CC[C@@H]2[C@H](COC[C@H](O)CN2Cc2cc(F)cc(F)c2)O1)NC1CCCC1 | 1.5 | i

# Part of the list above, with two lines to a compound.
# Order of results – AF4-AF9 inh	FGF22 binding
- CN(C)C(=O)[C@]1(Cc2ccccc2)N=C(c2ccc(OCCCO)cc2)O[C@@H]1c1ccccc1
 : 4.8	i
- C[C@@H]1CN([C@H](C)CO)C(=O)Cc2cc(NC(=O)Nc3ccc4c(c3)OCO4)ccc2O[C@H]1CN(C)Cc1ccc(C(=O)Nc2ccccc2N)cc1
 : 0.5	i
- CCNC(=O)[C@@H]1[C@@H](CO)[C@@H]2Cn3c(ccc(-c4cncnc4)c3=O)[C@@H]2N1C(=O)c1ccccc1F
 : 0.6	i
- CO[C@@H]1CC[C@H]2CCOc3ccc(C#N)cc3C(=O)N(C)C[C@@H](c3ccccc3)CC(=O)N(C)C[C@@H]1O2
 : 0.0	i
- CCCNC(=O)N(C)C[C@H]1Oc2ncc(-c3ccc(C(=O)N(C)C)cc3)cc2C(=O)N([C@@H](C)CO)C[C@H]1C
 : -6.9	i

# Remaining list, next part
SMILES,AF4-AF9 inh,FGF22 binding
C[C@@H]1CN([C@H](C)CO)C(=O)c2cc(NC(=O)Nc3ccccc3)ccc2O[C@H]1CN(C)C(=O)Nc1ccccc1,-1.9,i
O=C(c1cccc(F)c1)N1CC2(C1)[C@H](c1ccccc1)[C@@H](CO)N2Cc1ccccn1,-2.2,i
C[C@H]1CN([C@@H](C)CO)C(=O)c2cccc(NC(=O)C3CC3)c2O[C@H]1CN(C)C(=O)NC1CCCCC1,-3.5,i
COc1ccc(S(=O)(=O)N(C)C[C@H]2Oc3cc(C4=CCCC4)ccc3S(=O)(=O)N([C@@H](C)CO)C[C@@H]2C)cc1,-0.4,i
C[C@H]1CN([C@@H](C)CO)C(=O)c2cc(NS(=O)(=O)c3cn(C)cn3)ccc2O[C@@H]1CN(C)C(=O)Nc1ccccc1,-1.8,i
C[C@@H]1CN([C@H](C)CO)C(=O)c2cc(C3=CCCCC3)cnc2O[C@H]1CN(C)CC1CCOCC1,-0.3,i
O=C(C[C@@H]1C=C[C@@H](NS(=O)(=O)c2ccc(F)cc2)[C@H](CO)O1)N1CCc2ccccc2C1,-1.5,i
C[C@H]1CN([C@@H](C)CO)C(=O)Cc2cc(NC(=O)Nc3cccc4ccccc34)ccc2O[C@@H]1CN(C)Cc1ccc(C(=O)Nc2ccccc2N)cc1,-4.1,i
O=C(CS(=O)(=O)c1ccccc1)CS(=O)(=O)c1ccccc1,-3.8,i
O=C(C[C@@H]1CC[C@H]2[C@@H](COC[C@H](O)CN2C(=O)c2ccccc2F)O1)NCc1ccccc1,-6.8,i
O=C(C1=C[C@H](c2csc3ccccc23)C[C@H](OCCCCO)O1)N1CCCCCCC1,-1.1,i
C[C@@H]1CCCCO[C@@H](CN(C)C(=O)Nc2ccc3c(c2)OCO3)[C@H](C)CN([C@H](C)CO)C(=O)c2cc(NC(=O)Nc3ccc4c(c3)OCO4)ccc2O1,0.0,i
CC(C)N(C[C@H]1[C@H](c2ccccc2)[C@@H](CO)N1S(C)(=O)=O)C(=O)CN(C)C,-2.2,+
Cc1noc(C)c1S(=O)(=O)Nc1ccc2c(c1)C(=O)N([C@H](C)CO)C[C@H](C)[C@H](CN(C)C(=O)Nc1ccc(F)cc1)OCCCC[C@H](C)O2,2.1,i
CN1C(=O)c2cc(NC(=O)c3ccc(C(F)(F)F)cc3)ccc2OC[C@H]2O[C@@H](CC(=O)NCc3ccc4c(c3)OCO4)CC[C@H]21,-3.1,i
COC(=O)[C@H]1[C@H](CO)[C@H]2Cn3c(ccc(-c4ccccc4)c3=O)[C@H]2N1Cc1ccccc1F,0.1,i
CCCN(C)C[C@@H]1Oc2cc(C#CCN(C)C)ccc2S(=O)(=O)N([C@@H](C)CO)C[C@@H]1C,10,i
COc1cccc(C(=O)Nc2ccc3c(c2)C(=O)N(C)C[C@@H](OC)[C@H](C)CN(CC2CC2)[C@@H](C)CO3)c1,0.7,i

# A portion of the library, so the mix of outcomes need not match the whole.
